# Screening data as filed in PubChem BioAssay.
# CtBP-E1A blk = qHTS Assay for Inhibitors of the CtBP/E1A Interaction; CtBP / adenovirus E1A interaction (AlphaScreen); AlphaScreen GST-E1A/His-CtBP binding, 1536-well; stronger effect = lower value; control for the full effect not named in the record; activity change, % (test concentration not listed); 0.49% of 340,000 active; AID 651724, 2012; in the data active means activity change below about -65%; inconclusive means about -30% to -65%; inactive means above about -30%; note: % is set by controls: 0 for no effect and ±100 for the full control effect; compound concentration not given in the record
#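 Protein mix (5X: 125 nM each GST-E1A, His-CtBP) was incubated with pinned compound 2 h at 37 deg C in dark, in 50 mM Tris pH 8.0 buffer with 300 mM NaCl. Glutathione donor and nickel acceptor beads followed; AlphaScreen signal read after 1 h.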
# D2 agonist = Beta-Arrestin HTS for Positive Allosteric Modulators of the Human D2 Dopamine Receptor: Agonists | D(2) dopamine receptor (Homo sapiens), P14416 | 0.084% of 360,000 active | DiscoveRx PathHunter D2 beta-arrestin, luminescence, 90 min; 100% = 57 uM dopamine signal | activation, % (test concentration not listed); in the data active = activation above about 40%; inconclusive = about 15% to 40%; inactive = below about 15%; note: compound concentration not given in the record; the text of the record calls up to 30% inactive
# Target sequence (P14416 whole entry, looked up): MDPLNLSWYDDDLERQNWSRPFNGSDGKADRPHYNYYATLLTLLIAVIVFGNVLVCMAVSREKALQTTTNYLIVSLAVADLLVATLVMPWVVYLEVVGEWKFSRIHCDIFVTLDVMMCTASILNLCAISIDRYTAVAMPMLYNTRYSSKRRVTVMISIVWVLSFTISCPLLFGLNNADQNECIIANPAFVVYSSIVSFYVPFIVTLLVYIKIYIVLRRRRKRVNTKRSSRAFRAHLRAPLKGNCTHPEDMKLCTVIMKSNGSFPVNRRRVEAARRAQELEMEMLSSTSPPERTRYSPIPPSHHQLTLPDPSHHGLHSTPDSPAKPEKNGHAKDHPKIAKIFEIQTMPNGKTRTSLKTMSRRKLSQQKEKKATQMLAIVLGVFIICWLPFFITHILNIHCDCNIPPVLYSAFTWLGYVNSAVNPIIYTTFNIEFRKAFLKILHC
#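 DiscoveRx PathHunter D2 beta-arrestin cells (2,100/well) attached overnight, then compound-stimulated 90 min at 37 C in HBSS/10 mM HEPES/0.1% Tween-20 buffer; beta-galactosidase complementation read by luminescence after 1 h at ambient temperature. Dopamine 57 uM final (EC100) as control.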
# Six1-Eya2 inh = qHTS Assay for Inhibitors of the Six1/Eya2 Interaction | Homeobox protein SIX1 (Homo sapiens) + Protein phosphatase EYA2 (Homo sapiens), … | AlphaScreen GST-Six1/His-Eya2 binding, biochemical; stronger effect = lower value; control for the full effect not named in the record | activity change, % (concentration not given with the values) | 0.56% of 360,000 active; in the data active = activity change below about -65%; inconclusive = about -30% to -65%; inactive = above about -30%; note: % is set by controls: 0 for no effect and ±100 for the full control effect
#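 AlphaScreen with GST-Six1 and His-Eya2 (5X mix: 250 nM and 500 nM), glutathione donor and nickel acceptor beads; buffer 50 mM Tris pH 8.0, 300 mM NaCl, 1 mM TCEP; 1 h at 37 C in the dark.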
# D2 PAM = Beta-Arrestin HTS for Positive Allosteric Modulators of the Human D2 Dopamine Receptor: Potentiators | D(2) dopamine receptor (Homo sapiens), P14416 | DiscoveRx D2 beta-arrestin cells, luminescence, 90 min; 100% = 57 uM dopamine signal | potentiation, % (concentration not given with the values) | 0.23% of 360,000 active; active = potentiation of 50% or more; inconclusive = 30% to 50%; inactive = 30% or less;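 note: compound concentration not given in the record; tested on top of an EC20 dose of dopamine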
#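 PathHunter D2 cells, attached overnight at 37 deg C, received compound in DMSO plus dopamine at EC20 (50 nM final) for 90 min at 37 deg C. Beta-arrestin recruitment was read as luminescence after 1 h with detection reagent at ambient temperature.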
# gsp ag = qHTS for Agonist of gsp, the Etiologic Mutation Responsible for Fibrous Dysplasia/McCune-Albright Syndrome: qHTS; gsp mutant cells, cAMP HTRF, 30 min; control for the full effect not named in the record; Potency, µM (doses to about 76.9 µM), inactives show top-dose activation (cAMP increase), usual class: activators; 0.13% of 340,000 active; AID 624287, 2012; active = well fitted activation curve with a large enough effect; inconclusive = small, poorly fitted or top-dose-only effect, or another doubt; inactive = no such curve, though single readings can be large or run the other way; cell line not stated here;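 note: phosphodiesterase inhibitor Ro 20-1724 added with compounds to block cAMP breakdown; potency is the fitted concentration of half-maximal effect; nearly all actives have a fitted effect of over 60% in size; about a fifth of the inactives were tested at one dose only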
#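 Cells stably selected in G418 were plated at 2000/well, grown 16-24 hr, then given compounds in DMSO with the PDE inhibitor […] (300 uM solution added) for 30 min at 37C; cAMP was read by HTRF.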
# gsp antag = qHTS for Antagonists of gsp, the Etiologic Mutation Responsible for Fibrous Dysplasia/McCune-Albright Syndrome: qHTS; gsp-mutant cells, cAMP HTRF, 30 min; control for the full effect not named in the record; AID 624288, 2012; Potency, µM (titrated, usually from 76.9 µM), for the others: at the top dose activity change, negative = inhibition, most hits filed as inhibitors; 0.4% of 340,000 active; active = falling curve of any shape with a large fitted effect; inconclusive = falling curve, mostly with a smaller effect; inactive = flat or rising curve; cell line not stated here;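 note: intracellular cAMP measured with PDE inhibitor Ro 20-1724 present during compound exposure; potency is the fitted concentration of half-maximal effect; % is set by controls: 0 for no effect and ±100 for the full control effect; nearly all actives have a fitted effect of over 65% in size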
#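 HTRF cAMP measurement after 30 min RT detection following 30 min, 37C compound treatment alongside […] (added as 300 uM solution) in G418-selected cells seeded at 2000/well and grown 16–24 h.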
# An asterisk follows results filed as active; ? = inconclusive; . = not tested or not shown; [ ] = remark or other dose.
# Values run as follows: CtBP-E1A blk, D2 agonist, Six1-Eya2 inh, D2 PAM, gsp ag, gsp antag
- CC(=O)N/N=C(\C)CC(=O)Nc1ccc2c(c1)OCCO2
  0.0, -1.5, 4.1, 0.1, -0.6%, 3.6%
- COc1cccc(OCc2nn[nH]n2)c1
  -3.1, 1.9, 1.4, -6.3, 19.6%[15.4 µM], -9.4%
- Cc1ccc(-c2csc(NC(CO)c3nc4ccccc4n3CCOCCO)n2)cc1 (stereo not drawn)
  -27.3, -1.7, -9.3, -5.1, ., -5.9%
- O=C(Cn1cnc2ccccc2c1=O)Nc1ccc2c(c1)CCC2
  1.7, 3.3, 2.2, -6.9, 7.0%, 4.5%
- COc1ccccc1CN1C(=O)C(Cc2ccccc2)ON=C1c1ncccc1C (stereo not drawn)
  4.3, 6.7, 0.9, -3.7, ., .
- Cc1occc1-c1nnc(SCC(=O)Nc2ccccc2N2CCCCC2)n1C
  -16.1, -2.5, -16.8, 13.3, 5.6%, -11.6%
- O=C(CC[C@H]1O[C@@H](n2ccc(=O)[nH]c2=O)[C@H](O)[C@@H]1O)NCCN1CCOCC1
  8.7, -5.0, 0.8, -1.8, ., .
- C=CC(=O)NN(C)c1ncc(C(F)(F)F)cc1Cl
  1.4, -0.9, 6.3, -7.4, -0.3%, 1.0%
- CCOC(=O)c1cc(NC(=O)CN2CCCC2)cc(C(=O)OCC)c1
  -13.8, 3.3, -3.0, -3.3, 23.0%, 3.0%
- O=C(CSc1cccc[n+]1[O-])Nc1cc(S(=O)(=O)N2CCOCC2)ccc1Cl
  -13.1, 2.7, 3.6, 0.5, 8.7%[15.4 µM], 23.7%
- CC(C)c1nnc(NC(=O)CCC(=O)NCc2ccc3c(c2)OCO3)s1
  1.8, -5.7, 0.4, -15.1, -23.5%, 6.4%
- CC(C)CCNC(=O)C1CCC(CNc2c(N3CCC(C)CC3)c(=O)c2=O)CC1 (stereo not drawn)
  2.0, 0.4, -5.3, -6.3, 2.6%[15.4 µM], -11.7%
- COC(=O)CN1C(=O)[C@@H]2[C@H](C1=O)[C@@H]1CC(C(=O)OC)=C[C@@H](C(=O)OC)[C@@H]3C1=C(C(=O)[C@]3(C)NC(=O)c1ccccc1)[C@@H]2C
  -1.1, 1.4, -0.4, -0.4, -50.0%[inhibitor], 3.6%
- Cc1ccc(NC(=O)CN(C)C(=O)COc2c(Cl)cc(Cl)c3ccc(C)nc23)cc1
  ., -3.5, -1.5, -3.7, -6.4%, -7.9%
- O=S(=O)(c1cc(Cl)ccc1Cl)N1CCN(c2ccccn2)CC1
  -10.5, 1.5, -15.9, 5.0, -7.7%[15.4 µM], 11.5%
- CCN1CCN(Cc2cc(=O)oc3ccc(Cl)cc23)CC1
  0.2, -3.2, -2.4, -32.6, -4.6%, 20.5%
- Nc1ccn([C@@H]2O[C@H](CNCc3cccc4c3sc3ccccc34)[C@@H](O)[C@H]2O)c(=O)n1
  -0.6, -7.5, -5.9, -9.3, -51.6%[inhibitor], .
- O=C(O)c1cc(-c2cc(C(=O)O)c3ccccc3n2)ccc1O
  -20.6, -5.2, -26.6, -9.4, ?, 4.4%
- CCN(C(=O)COC(=O)c1ccc(COc2ccc3c(C)cc(=O)oc3c2)cc1)C1CCS(=O)(=O)C1 (stereo not drawn)
  -8.5, 0.4, -0.4, 16.1, -5.3%[15.4 µM], -8.3%
- Cc1c(/N=C(\[O-])Nc2ccc(Br)cc2)sn[n+]1C
  ., 2.5, 7.9, 1.2, -14.3%, -3.2%

# Further records follow.
# Short forms: A = CtBP-E1A blk; B = D2 agonist; C = Six1-Eya2 inh; D = D2 PAM; E = gsp ag; F = gsp antag
CN(C)/C=C(\C#N)C(=O)N/N=C/c1ccc(Cl)cc1
  A: .; B: -7.0; C: 7.0; D: -2.7; E: -19.7%; F: 10.0%
CC[C@]12c3[nH]c4cc(CCC(=O)N(C)C)ccc4c3CCN1C(=O)[C@@H](CC(=O)NCCc1ccccn1)C[C@@H]2C(=O)N1CCN(C(=O)C2CC2)CC1
  A: -0.5; B: 1.7; C: -0.7; D: .; E: .; F: 9.8%
S=c1[nH]nc(-c2ccc3ccccc3n2)n1-c1ccc2ncccc2c1
  A: -19.4; B: 0.0; C: -19.6; D: -9.2; E: 1.0%; F: 2.7%
O=C(Nc1ccccc1Cl)c1cccc(COc2cc(Cl)ccc2Cl)c1
  A: 8.0; B: -3.7; C: 3.7; D: -3.7; E: -7.3%[15.4 µM]; F: 11.3%
CCOC(=O)c1ccc(NC(=O)c2cc(S(=O)(=O)N3CCOCC3)ccc2O)cc1
  A: 4.5; B: 1.4; C: -1.6; D: -5.6; E: -12.0%; F: ?
CC(C)=CCc1c(O)ccc(C2COc3c(CC=C(C)C)c(O)cc(O)c3C2=O)c1O (stereo not drawn)
  A: -4.8; B: -0.3; C: 10.6; D: 0.6; E: ?; F: 0.5%
CN(C(=O)COc1ccc(-c2nnco2)cc1)C1CCS(=O)(=O)C1 (stereo not drawn)
  A: -18.6; B: 10.3; C: 6.7; D: -6.4; E: 7.4%; F: 9.5%
CC1CCCN(C(=O)C2c3ccccc3C(=O)N3CCc4ccccc4C23)C1 (stereo not drawn)
  A: 48.6; B: -1.9; C: 19.0; D: -1.7; E: 13.3%; F: -3.6%
C#CCOCCOCCOCCNc1nc(N2CCN(C(=O)CCCCCCCCCCNC(=O)Cn3cc(CCCCCN)nn3)CC2)nc(N2CCN(C(=O)CCCCCCCCCCNC(=O)Cn3cc(C[C@@H](C)O)nn3)CC2)n1
  A: -26.7; B: 6.6; C: -13.7; D: -1.4; E: .; F: 9.6%
Cc1cccn2c(=O)c(/C=C(\C#N)C(N)=O)c(N3CCN(c4ccccc4)CC3)nc12
  A: .; B: -3.7; C: -2.1; D: -5.2; E: -4.3%; F: -2.4%
COc1ccc(C2=NN(C(=O)CCC(=O)O)C(c3ccc(OC)cc3)C2)cc1 (stereo not drawn)
  A: 6.5; B: -2.0; C: 4.7; D: -1.5; E: -25.3%; F: -16.8%
N#C/C(=C/c1ccc(O)c(O)c1)C(=O)NCc1ccc(Cl)cc1
  A: -25.6; B: -4.1; C: -10.8; D: -12.1; E: 0.6%; F: -5.8%
COCCN1Cc2cccc(C(=O)NCCCN3CCCC3=O)c2C1=O
  A: 2.4; B: 2.2; C: -0.9; D: -0.8; E: 2.2%[15.4 µM]; F: 8.8%
COc1ccc(-c2noc(CSc3nc4ccccc4c(=O)n3-c3ccccc3)n2)cc1OC
  A: 1.2; B: -3.2; C: -2.5; D: 5.6; E: ?; F: -2.7%

# A different layout for part of the listing above:
SMILES | CtBP-E1A blk | D2 agonist | Six1-Eya2 inh | D2 PAM | gsp ag | gsp antag
Nc1ccn([C@@H]2O[C@H](CNCc3cccc4c3sc3ccccc34)[C@@H](O)[C@H]2O)c(=O)n1 | -0.6 | -7.5 | -5.9 | -9.3 | -51.6%[inhibitor] | .
O=C(O)c1cc(-c2cc(C(=O)O)c3ccccc3n2)ccc1O | -20.6 | -5.2 | -26.6 | -9.4 | ? | 4.4%
CCN(C(=O)COC(=O)c1ccc(COc2ccc3c(C)cc(=O)oc3c2)cc1)C1CCS(=O)(=O)C1 (stereo not drawn) | -8.5 | 0.4 | -0.4 | 16.1 | -5.3%[15.4 µM] | -8.3%
Cc1c(/N=C(\[O-])Nc2ccc(Br)cc2)sn[n+]1C | . | 2.5 | 7.9 | 1.2 | -14.3% | -3.2%
CN(C)/C=C(\C#N)C(=O)N/N=C/c1ccc(Cl)cc1 | . | -7.0 | 7.0 | -2.7 | -19.7% | 10.0%
CC[C@]12c3[nH]c4cc(CCC(=O)N(C)C)ccc4c3CCN1C(=O)[C@@H](CC(=O)NCCc1ccccn1)C[C@@H]2C(=O)N1CCN(C(=O)C2CC2)CC1 | -0.5 | 1.7 | -0.7 | . | . | 9.8%
S=c1[nH]nc(-c2ccc3ccccc3n2)n1-c1ccc2ncccc2c1 | -19.4 | 0.0 | -19.6 | -9.2 | 1.0% | 2.7%
O=C(Nc1ccccc1Cl)c1cccc(COc2cc(Cl)ccc2Cl)c1 | 8.0 | -3.7 | 3.7 | -3.7 | -7.3%[15.4 µM] | 11.3%
CCOC(=O)c1ccc(NC(=O)c2cc(S(=O)(=O)N3CCOCC3)ccc2O)cc1 | 4.5 | 1.4 | -1.6 | -5.6 | -12.0% | ?
CC(C)=CCc1c(O)ccc(C2COc3c(CC=C(C)C)c(O)cc(O)c3C2=O)c1O (stereo not drawn) | -4.8 | -0.3 | 10.6 | 0.6 | ? | 0.5%
CN(C(=O)COc1ccc(-c2nnco2)cc1)C1CCS(=O)(=O)C1 (stereo not drawn) | -18.6 | 10.3 | 6.7 | -6.4 | 7.4% | 9.5%
CC1CCCN(C(=O)C2c3ccccc3C(=O)N3CCc4ccccc4C23)C1 (stereo not drawn) | 48.6 | -1.9 | 19.0 | -1.7 | 13.3% | -3.6%
C#CCOCCOCCOCCNc1nc(N2CCN(C(=O)CCCCCCCCCCNC(=O)Cn3cc(CCCCCN)nn3)CC2)nc(N2CCN(C(=O)CCCCCCCCCCNC(=O)Cn3cc(C[C@@H](C)O)nn3)CC2)n1 | -26.7 | 6.6 | -13.7 | -1.4 | . | 9.6%
Cc1cccn2c(=O)c(/C=C(\C#N)C(N)=O)c(N3CCN(c4ccccc4)CC3)nc12 | . | -3.7 | -2.1 | -5.2 | -4.3% | -2.4%
COc1ccc(C2=NN(C(=O)CCC(=O)O)C(c3ccc(OC)cc3)C2)cc1 (stereo not drawn) | 6.5 | -2.0 | 4.7 | -1.5 | -25.3% | -16.8%
